Assay outcomes from PubChem BioAssay.
HIV Env fusion: HIV envelope-mediated fusion inhibition. HeLa-JRFL Env/CEM21 cell fusion, luciferase. inhibition, % at 12.3 µM. hit rate 1.1% among 360,000. AID 651610;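 active = mean replicate inhibition score of at least 50 and every replicate individually at or above 50; inconclusive = only one of the two criteria met; inactive = mean below 50 and not all replicates reaching 50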;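 also: 0% = plate neutral controls and 100% = maraviroc near 300 nM; one replicate is shown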
Numbers without * were called inactive; u = inconclusive; [ ] = dose if it differs, or a comment. Only part of the results is shown. The share of hits here may be higher or lower than overall.

SMILES | HIV Env fusion
C[C@@H]1CN([C@H](C)CO)C(=O)c2cc(-c3cccnc3)cnc2O[C@H]1CN(C)Cc1ccccc1 | 16[16.7 µM]
C[C@H](NC(=O)C[C@@H]1C[C@@H]2c3cc(NC(=O)C4CCOCC4)ccc3O[C@@H]2[C@H](CO)O1)c1ccccc1 | 5[16.7 µM]
COc1ccc2c3c(n(C)c2c1)[C@@H](CO)N(C(=O)C1CC1)CC31CCN(C)CC1 | -1[16.7 µM]
CO[C@H]1CN(C)C(=O)c2cc(NC(=O)c3cc(C)on3)ccc2OC[C@H](C)N(CC2CC2)C[C@H]1C | 14[16.7 µM]
COCC(=O)N1[C@@H]2c3ccc(-c4cccnc4)c(=O)n3C[C@@H]2[C@@H](CO)[C@@H]1C(=O)Nc1ccccc1 | -7[16.7 µM]
C[C@@H]1CN([C@@H](C)CO)C(=O)c2cc(NC(=O)Nc3ccccc3)ccc2O[C@H]1CN(C)C | 14[16.7 µM]
C/C=C/c1ccc2c(c1)O[C@@H](CN(C)C(=O)C1CCCCC1)[C@@H](C)CN([C@@H](C)CO)S2(=O)=O | -4[16.7 µM]
COc1ccc(CN(C)C[C@@H]2Oc3ccc(NS(=O)(=O)c4cccs4)cc3CC(=O)N([C@H](C)CO)C[C@@H]2C)cc1 | 0[16.7 µM]
CN(C)C(=O)C[C@@H]1C[C@@H]2c3cc(NC(=O)c4cccnc4)ccc3O[C@@H]2[C@H](CO)O1 | 17[16.7 µM]
Cc1noc(C)c1NC(=O)Nc1ccc2c(c1)CC(=O)N([C@@H](C)CO)C[C@H](C)[C@H](CN(C)Cc1ccc(-c3ccccc3)cc1)O2 | -50[16.7 µM]
COc1ccc(CN(C)C[C@@H]2Oc3ccc(NS(=O)(=O)c4cccs4)cc3CC(=O)N([C@@H](C)CO)C[C@@H]2C)cc1 | 18[16.7 µM]
COCC(=O)Nc1ccc2c(c1)[C@H]1C[C@H](CC(=O)NCc3ccc4c(c3)OCO4)O[C@@H](CO)[C@H]1O2 | 1[16.7 µM]
C[C@@H]1CN([C@@H](C)CO)S(=O)(=O)c2ccc(C3=CCCCC3)cc2O[C@H]1CN(C)CC1CC1 | 13[16.7 µM]
COc1ccccc1CNc1ccc2c(c1)OC[C@H](CC(C)C)NS2(=O)=O | -27
COc1cccc(S(=O)(=O)Nc2ccc3c(c2)[C@@H]2C[C@H](CC(=O)N4CCCCC4)O[C@@H](CO)[C@@H]2O3)c1 | 17[16.7 µM]
CC(=O)N(Cc1ccccc1)c1nccs1 | u
C[C@@H](NC(=O)C[C@@H]1C=C[C@H](NC(=O)Nc2ccc3c(c2)OCO3)[C@H](CO)O1)c1ccccc1 | -21[16.7 µM]
Cc1noc(C)c1C(=O)N(C)C[C@@H]1OCc2ccccc2-c2ccccc2C(=O)N([C@@H](C)CO)C[C@H]1C | 19[16.7 µM]
C[C@@H]1CN([C@H](C)CO)C(=O)c2cc(C#CC3(O)CCCC3)cnc2O[C@H]1CN(C)C(=O)C1CC1 | -7[16.7 µM]
CN1CCN(C(=O)C[C@H]2C=C[C@H](NC(=O)Nc3ccccc3F)[C@@H](CO)O2)CC1 | -13[16.7 µM]
CC(C)CC#Cc1ccc([C@H]2[C@H]3CN(C(=O)NC4CCCC4)CC(=O)N3[C@H]2CO)cc1 | 30[16.7 µM]
COCCNC(=O)c1cc2c(c(-c3cccc(C4=CCCC4)c3)n1)[C@H](CCO)N([S@@](=O)C(C)(C)C)C2 | 9[16.7 µM]
COCC(=O)Nc1ccc2c(c1)[C@@H]1C[C@H](CC(=O)N3CCOCC3)O[C@H](CO)[C@@H]1O2 | 1[16.7 µM]
CCN(Cc1cc(OC)c(OC)c(OC)c1)S(=O)(=O)c1ccccc1Br | 12
COc1cc(F)ccc1Oc1cccc2c1S(=O)(=O)N(C1CC1)C[C@@H](COCc1ccccc1)O2 | -10

Arranged by the number under HIV Env fusion (descending): three from the list above
Molecule | HIV Env fusion
CCN(Cc1cc(OC)c(OC)c(OC)c1)S(=O)(=O)c1ccccc1Br | 12
COc1cc(F)ccc1Oc1cccc2c1S(=O)(=O)N(C1CC1)C[C@@H](COCc1ccccc1)O2 | -10
COc1ccccc1CNc1ccc2c(c1)OC[C@H](CC(C)C)NS2(=O)=O | -27

Following part
SMILES | HIV Env fusion
CCS(=O)(=O)Nc1ccc2c(c1)C(=O)N(C)C[C@H](OC)[C@H](C)CN(C(=O)COC)[C@H](C)CO2 | 4[16.7 µM]
C[C@@H](NC(=O)N(C)C[C@@H]1OCc2ccccc2-c2c(n(C)c3ccccc23)C(=O)N([C@@H](C)CO)C[C@@H]1C)c1ccccc1 | 32[16.7 µM]
CCC(=O)Nc1ccc2c(c1)C(=O)N(C)C[C@@H](OC)[C@@H](C)CN(CC1CCOCC1)[C@@H](C)CO2 | 11[16.7 µM]
CO[C@@H]1CN(C)C(=O)c2cc(NC(=O)C3CCCCC3)ccc2OC[C@@H](C)NC[C@@H]1C | -14[16.7 µM]
COc1cccc(C(=O)N2CCC[C@@H]2C(=O)N2CCC[C@H]2C(=O)NCc2ccccc2)c1 | 12
COc1ccc(CNC(=O)N(C)C[C@H]2OCc3ccccc3-c3ccccc3C(=O)N([C@H](C)CO)C[C@@H]2C)cc1 | 72*[16.7 µM]
O=C(C[C@@H]1CC[C@@H]2[C@H](COC[C@H](O)CN2Cc2ccc(Oc3ccccc3)cc2)O1)N1CCN(c2ccccc2)CC1 | 18[16.7 µM]
C[C@@H]1CN([C@@H](C)CO)C(=O)c2cc(NC(=O)C3CC3)ccc2O[C@@H]1CN(C)C | -11[16.7 µM]
COc1ccc2c3c([nH]c2c1)[C@@H](CO)N(C(=O)Nc1ccc(F)cc1)CC31CCN(S(=O)(=O)c2cccc(C)c2)CC1 | -2[16.7 µM]
Cc1ccc(N)cc1CN1CCN(c2ncc(Cc3ccccc3)cn2)CC1 | 1
CO[C@@H]1CN(C)C(=O)c2cc(NC(=O)C3CC3)ccc2OC[C@@H](C)N(C(=O)c2ccccc2F)C[C@@H]1C | -30[16.7 µM]
CS(=O)(=O)Nc1ccc2c(c1)[C@H]1C[C@@H](CC(=O)NCCc3ccccc3)O[C@H](CO)[C@H]1O2 | 16[16.7 µM]
CCCN(C)C[C@@H]1OCCCC[C@H](C)Oc2ccc(NS(=O)(=O)c3ccc(C)cc3)cc2C(=O)N([C@@H](C)CO)C[C@H]1C | 5[16.7 µM]
C[C@@H]1CN([C@H](C)CO)C(=O)Cc2cc(NS(=O)(=O)c3cn(C)cn3)ccc2O[C@H]1CN(C)Cc1ccc(-c2ccccc2)cc1 | -11[16.7 µM]
Cc1ccccc1S(=O)(=O)NCC[C@H]1CC[C@@H](NS(=O)(=O)c2ccccc2C)[C@H](CO)O1 | 4[16.7 µM]
CCCCc1c(-c2ccccc2OC)ncn1C1CCCCC1 | 16
CC(C)NC(=O)Nc1ccc2c(c1)C(=O)N([C@@H](C)CO)C[C@H](C)[C@@H](CN(C)CC1CC1)OCCCC[C@H](C)O2 | 2[16.7 µM]
CO[C@H]1CN(C)C(=O)c2cc(NS(=O)(=O)c3ccc(C)cc3)ccc2OC[C@H](C)N(C(=O)NC(C)C)C[C@@H]1C | 8[16.7 µM]
Cc1cc(N2CCNC[C@@H]2C)ccc1N1CCS(=O)(=O)CC1 | -1
CO[C@H]1CN(C)C(=O)c2ccc(NC(C)=O)cc2OC[C@@H](C)N(Cc2cncnc2)C[C@H]1C | 12[16.7 µM]
C[C@@H]1CN([C@@H](C)CO)C(=O)c2cc(N(C)C)ccc2O[C@@H](C)CCCCO[C@H]1CN(C)C(=O)Cc1ccccc1 | -24[16.7 µM]
COc1ccc(S(=O)(=O)N(C)C[C@H]2Oc3c(cccc3N(C)C)C(=O)N([C@@H](C)CO)C[C@H]2C)cc1 | 2[16.7 µM]
COc1ccc(C2CC(=O)C(c3ccc(C(N)=O)cc3)=CN2Cc2ccccc2)cc1 (stereo unspecified) | 5
COCC(=O)Nc1ccc2c(c1)C(=O)N(C)C[C@@H](OC)[C@@H](C)CN(C(=O)c1ccccc1)[C@@H](C)CO2 | -6[16.7 µM]
O=c1[nH]cnc2nn(C3OC(CO)C(O)C3O)nc12 (stereo unspecified) | -59

Fetched by compound from the list above, 4 records:
SMILES | HIV Env fusion
COCC(=O)Nc1ccc2c(c1)C(=O)N(C)C[C@@H](OC)[C@@H](C)CN(C(=O)c1ccccc1)[C@@H](C)CO2 | -6[16.7 µM]
C[C@@H](NC(=O)N(C)C[C@@H]1OCc2ccccc2-c2c(n(C)c3ccccc23)C(=O)N([C@@H](C)CO)C[C@@H]1C)c1ccccc1 | 32[16.7 µM]
CCC(=O)Nc1ccc2c(c1)C(=O)N(C)C[C@@H](OC)[C@@H](C)CN(CC1CCOCC1)[C@@H](C)CO2 | 11[16.7 µM]
O=C(C[C@@H]1CC[C@@H]2[C@H](COC[C@H](O)CN2Cc2ccc(Oc3ccccc3)cc2)O1)N1CCN(c2ccccc2)CC1 | 18[16.7 µM]

(more compounds)
SMILES | HIV Env fusion
O=C(C[C@@H]1C=C[C@@H](NC(=O)C2CC2)[C@H](CO)O1)NC1CCC1 | -5[16.7 µM]
CCCN(C)C[C@@H]1Oc2cc(C3=CCCC3)ccc2S(=O)(=O)N([C@@H](C)CO)C[C@@H]1C | -15[16.7 µM]
CN1C(=O)c2cc(NC(=O)c3ccc(F)c(F)c3)ccc2OC[C@H]2O[C@@H](CC(=O)N[C@H]3CCN(Cc4ccccc4)C3)CC[C@@H]21 | -17[16.7 µM]
CN1[C@@H]2c3ccc(-c4cncnc4)c(=O)n3C[C@@H]2[C@@H](CO)[C@@H]1C(=O)NC1Cc2ccccc2C1 | 15[16.7 µM]
COc1ccc(CN(C)C[C@H]2Oc3ccc(NC(=O)NC4CCCCC4)cc3CC(=O)N([C@@H](C)CO)C[C@H]2C)cc1 | 7[16.7 µM]
COC(=O)C1=C(C)N(Cc2cccc(C(F)(F)F)c2)C(=NCc2ccc3c(c2)OCO3)NC1c1ccc(Cl)cc1 (stereo unspecified) | 63*
CNC[C@H]1OCCCC[C@@H](C)Oc2ccc(NC(=O)Nc3ccc(OC)cc3)cc2C(=O)N([C@H](C)CO)C[C@@H]1C | 3[16.7 µM]
Cc1noc(C)c1S(=O)(=O)Nc1ccc2c(c1)C(=O)N([C@@H](C)CO)C[C@@H](C)[C@@H](CN(C)S(=O)(=O)c1ccc(F)cc1)O2 | -10[16.7 µM]
C[C@H](O)[C@@H]1C(=O)N2CCc3c([nH]c4c(-c5ccc6c(c5)OCO6)cccc34)[C@@H]2C[C@@H]1N(C)C(=O)NC1CCCCC1 | 15
COc1ccccc1CNC(=O)C[C@H]1C[C@H]2c3cc(NC(=O)CN(C)C)ccc3O[C@H]2[C@@H](CO)O1 | -6[16.7 µM]
C[C@H](CO)N1C[C@H](C)[C@H](CN(C)C(=O)Nc2cccc3ccccc23)Oc2ccc(NS(C)(=O)=O)cc2CC1=O | 20[16.7 µM]
C[C@@H]1CN([C@H](C)CO)S(=O)(=O)c2ccc(-c3ccncc3)cc2O[C@@H]1CN(C)C(=O)C1CCC1 | -5[16.7 µM]
COc1cccc(S(=O)(=O)Nc2ccc3c(c2)OC[C@@H](C)N(C(=O)Cc2cccnc2)C[C@@H](C)[C@H](OC)CN(C)C3=O)c1 | 8[16.7 µM]
COc1cccc(NC(=O)Nc2ccc3c(c2)C(=O)N(C)C[C@@H](OC)[C@H](C)CN(CC2CC2)[C@@H](C)CO3)c1 | -11[16.7 µM]
COc1ccc(NC(=O)Nc2ccc3c(c2)CC(=O)N([C@H](C)CO)C[C@H](C)[C@@H](CN(C)S(=O)(=O)c2ccc(Cl)cc2)O3)cc1 | 35[16.7 µM]
COC(=O)C1=C(C)N(Cc2cccc(C(F)(F)F)c2)C(=NCC2CC2)NC1c1ccc(F)cc1 (stereo unspecified) | 33
CC(C)NC(=O)Nc1ccc2c(c1)C(=O)N([C@@H](C)CO)C[C@@H](C)[C@@H](CN(C)C(=O)NC(C)C)OCCCC[C@H](C)O2 | -2[16.7 µM]
C[C@@H]1CCCCO[C@H](CN(C)C(=O)c2ccncc2)[C@@H](C)CN([C@@H](C)CO)C(=O)c2cc(NC(=O)c3ccncc3)ccc2O1 | -11[16.7 µM]
C[C@@H](NC(=O)[C@H]1[C@H](CO)[C@H]2Cn3c(ccc(-c4ccncc4)c3=O)[C@H]2N1C)c1ccccc1 | -7[16.7 µM]
C=CCN(CC=C)C[C@@H]1CSCCS(=O)(=O)N1 | -4
Nc1ncnc2c1ncn2[C@@H]1O[C@H](C(=O)N[C@@H](CCc2ccccc2)C(=O)N2CCN(C(=O)C(F)(F)F)CC2)[C@@H](O)[C@H]1O | -36
COCC(=O)Nc1ccc2c(c1)C(=O)N(C)C[C@H](OC)[C@H](C)CN[C@H](C)CO2 | 5[16.7 µM]
C/C=C/c1cnc2c(c1)C(=O)N([C@@H](C)CO)C[C@@H](C)[C@H](CN(C)C(=O)Nc1ccc(F)cc1)O2 | 21[16.7 µM]
O=C(NCC(F)(F)F)[C@H]1[C@H](CO)[C@H]2Cn3c(cccc3=O)[C@H]2N1C(=O)C1CC1 | -8[16.7 µM]
CNC[C@H]1OCCCC[C@@H](C)Oc2ccc(NC(=O)Nc3ccc(OC)cc3)cc2C(=O)N([C@H](C)CO)C[C@H]1C | 4[16.7 µM]
Brc1ccc(-c2ccc3c(n2)CCCN3Cc2ccccn2)cc1 | -14
C[C@H](CO)N1C[C@H](C)[C@H](CN(C)Cc2ccc(Cl)c(Cl)c2)Oc2ccc(NS(=O)(=O)c3ccc(F)cc3)cc2CC1=O | -19[16.7 µM]
CO[C@@H]1CC[C@H]2CCN(C)C(=O)[C@H](C)N(C)C(=O)c3cccc(C#N)c3OC[C@H]1O2 | -5[16.7 µM]
